High-throughput results as filed in PubChem BioAssay.
PKD1 kinase inh – inhibitors of human PKD1 kinase, biochemical, fluorescence polarization. Serine/threonine-protein kinase D1 (Homo sapiens), Q15139. AID 797, 2007. PKD1 kinase fluorescence polarization assay. 200,000 compounds, 0.056% hits. inhibition, %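 (about 10 µM by stock and volumes)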;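 active = inhibition of 50% or more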;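 note: controls were vehicle for no effect and a reference inhibitor for full effect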
INS promoter inh – inhibitors of insulin promoter-driven GFP, primary screen, imaging, TRM-6 cells (human fetal islet line), eGFP reporter, cell count; 130,000 compounds, 0.9% hits; reporter expression induced with tamoxifen; inhibition, % at 2 µM;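 active = inhibition above the mean plus 3 SD, with well images judged a real hit on visual review, cut at about 60% in these data, passing the limit was not always enough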
RGS16-Gao – modulators of RGS16 binding to Galphao, primary screen, biochemical, human proteins, multiplexed bead flow cytometry. Regulator of G-protein signaling 16 (Homo sapiens) + Guanine nucleotide-binding protein …. bead-based flow cytometry RGS16-Galphao binding, fluorescence; actives lie on both sides. binding response (% of control), % at 10 µM. 220,000 compounds, 0.38% hits. AID 1441, 2008;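 active = below 25% or above 175%, edge rows of some plates excepted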;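 note: Galphao activated by GDP with aluminum fluoride before binding; 100% = wells without compound and 0% = beads without RGS; some results beyond the cut were filed as inactive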
Target sequence (O15492 whole entry, looked up): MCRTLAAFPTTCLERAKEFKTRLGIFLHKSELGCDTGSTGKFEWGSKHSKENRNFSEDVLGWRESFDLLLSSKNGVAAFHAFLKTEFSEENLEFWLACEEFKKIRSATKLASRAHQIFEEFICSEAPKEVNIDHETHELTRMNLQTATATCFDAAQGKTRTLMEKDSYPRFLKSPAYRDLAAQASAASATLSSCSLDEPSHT
Target sequence (P09471 whole entry, looked up): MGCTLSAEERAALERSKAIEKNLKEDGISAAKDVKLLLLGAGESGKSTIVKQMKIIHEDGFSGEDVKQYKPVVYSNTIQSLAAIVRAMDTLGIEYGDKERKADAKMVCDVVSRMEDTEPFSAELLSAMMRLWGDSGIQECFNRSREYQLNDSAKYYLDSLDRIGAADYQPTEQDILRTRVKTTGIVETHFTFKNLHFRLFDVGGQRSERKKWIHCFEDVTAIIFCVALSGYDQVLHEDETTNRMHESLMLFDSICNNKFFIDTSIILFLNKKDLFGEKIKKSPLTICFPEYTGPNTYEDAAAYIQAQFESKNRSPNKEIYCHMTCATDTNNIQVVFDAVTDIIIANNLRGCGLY
GALR2 agonist – GALR2 receptor agonists, primary screen, cell-based; AID 803, 2007; GALR2-expressing cells, agonist activation read-out; Galanin receptor type 2 (Homo sapiens), O43603; activation, %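 (tested at 5 µM)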; 140,000 compounds, 0.48% hits;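 active = above mean plus 3 SD of all compounds, about 5% in these data, not always enough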;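 note: 0% = vehicle buffer wells and 100% = reference agonist at full effect; tested in CHO reporter cells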
Target sequence (O43603 whole entry, looked up): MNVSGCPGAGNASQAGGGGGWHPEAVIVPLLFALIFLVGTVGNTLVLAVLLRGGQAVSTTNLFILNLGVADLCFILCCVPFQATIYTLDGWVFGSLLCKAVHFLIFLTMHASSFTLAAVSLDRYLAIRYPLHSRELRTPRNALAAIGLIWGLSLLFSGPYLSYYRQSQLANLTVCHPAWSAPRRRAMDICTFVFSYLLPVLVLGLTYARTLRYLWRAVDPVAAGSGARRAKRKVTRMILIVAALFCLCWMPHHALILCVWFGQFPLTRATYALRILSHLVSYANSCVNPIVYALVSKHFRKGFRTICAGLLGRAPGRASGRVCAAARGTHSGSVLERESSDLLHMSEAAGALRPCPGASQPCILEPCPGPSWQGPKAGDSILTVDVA
HSV augment – enhancers of HSV replication in host cells, fold increase, host cell viability. HSV replication augmentation in cells. maximum fold increase. 220,000 compounds, 0.005% hits;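 active = peak rise of 1.5-fold or more in the series; tested in PC3 cells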;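 note: first round at 10 µM; read as green reporter fluorescence; hits show the peak of a series up to 25 µM; 1 = signal of infected wells without compound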
INS promoter inh cell count – also measured in INS promoter inh; calls as there; normalized cell count, %; measured here: cell count, toxicity; reference of the scale not given here;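 cells exposed to compound for 48 h; stained nuclei by imaging scaled within each plate; lower means fewer cells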
HSV augment primary fold – recorded beside HSV augment, whose call it bears; fold increase; compound at 10 µM; measured here: primary screen fold increase 10 uM; tested in PC3 cells;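 GFP signal in the first replicate; 1 = infected wells without compound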
* marks the source's active call; other numbers are inactive results; i = inactive; nt = not tested or not shown.

SMILES	PKD1 kinase inh	INS promoter inh	INS promoter inh cell count	RGS16-Gao	GALR2 agonist	HSV augment	HSV augment primary fold
CCOCc1c(C(=O)Nc2cc(OCC)c(N3CCOCC3)cc2OCC)oc2ccccc12	2	nt	nt	103	nt	i	0.87
COc1cc(CN2CCCC(C)C2)cc([N+](=O)[O-])c1O (centres undefined)	-4	nt	nt	103	-3.3	i	0.96
CC(=O)Nc1ccc2nc(NC(=O)c3ccc([N+](=O)[O-])s3)sc2c1	nt	nt	nt	87	nt	i	0.91
O=[N+]([O-])c1ccc(C2CCCC/C2=N\OCc2cccc(F)c2)c([N+](=O)[O-])c1 (centres undefined)	-10	nt	nt	98	-0.5	nt	nt
Fc1ccc(CO/N=C/C2=C(Cl)c3ccccc3CC2)cc1	-5	-25	80	103	0.5	i	1.1
O=C1Nc2cc(Cl)cnc2N2CCCC12 (centres undefined)	-9	nt	nt	97	-0.2	i	1
Cc1cc(C)n(-c2ccccc2[N+](=O)[O-])n1	-7	nt	nt	98	nt	i	1.1
O=C(c1cccs1)n1nc(-c2ccccc2)nc1NCc1ccco1	-1	26	154	99	-1.6	i	0.86
Cc1nn(C)cc1CNCc1c(C(=O)N2CCCCC2)nc2c(C)cccn12	2	nt	nt	106	nt	i	1.1
O=C(CN1CCN(S(=O)(=O)c2ccc(Cl)cc2)CC1)Nc1ccc2c(c1)OCCO2	-5	3	112	89	-3.0	i	0.93
CC(=O)C1=C(O)C(=O)N(CCCCCC(=O)O)C1c1ccc(N(C)C)cc1 (centres undefined)	7	nt	nt	103	-1.2	i	0.95
CCOC(=O)N1CCN(c2c(N3CCN(c4cccc(C)c4C)CC3)c(=O)c2=O)CC1	3	nt	nt	96	-3.6	i	1.2
CC(C)c1[nH]nc2c1C(C1C=CCCC1)C(C#N)=C(N)O2 (centres undefined)	nt	nt	nt	103	nt	i	0.82
O=c1[nH]nc(Cc2ccc(-c3ccc(Cl)cc3)o2)c2ccccc12	-10	-54	68	55	-0.6	i	0.92
CCN(CC)C(=O)C(=O)N/N=C/c1ccc(Br)cc1	1	33	61	103	-0.6	i	1
CCN(CC)c1ccc(/C=N/Nc2ccccc2)c(O)c1	-3	60	91	96	-2.2	i	0.88
CCc1nnc(NC(=O)C(=O)NCCOC(=O)c2ccccc2Cl)s1	-6	nt	nt	109	0.0	i	0.93
Cc1c(NC(=O)Cc2noc3ccccc23)cccc1[N+](=O)[O-]	-2	nt	nt	109	nt	i	0.92
CN(c1ccccc1)S(=O)(=O)c1ccc(Cl)nc1	-8	nt	nt	103	nt	i	0.96
Cc1ccc(-c2nnc(SCC(=O)Nc3ccccc3F)o2)cc1	-10	nt	nt	104	-1.7	i	0.93
Cc1nc2ccc(S(=O)(=O)NC(C(=O)NCc3cccs3)C(C)C)cc2s1 (centres undefined)	-6	nt	nt	103	-0.4	i	0.89
COc1ccccc1OCCCCN1CCN(C(c2ccccc2)c2ccccc2)CC1	-7	15	125	117	-0.7	i	0.86
Oc1c(Cl)cccc1C=Nc1cc(C(F)(F)F)ccc1N1CCCC1	5	29	115	101	-1.9	nt	nt
CCOC(=O)N1CCN(S(=O)(=O)/C=C/c2ccccc2)CC1	-4	nt	nt	104	-1.4	i	0.87
CCSc1nnc(NC(=O)CSC2=NN3CCCC(=O)N=C3S2)s1	-5	21	57	101	nt	i	1
O=C(CCSCCc1ccncc1)NCCCN1CCOCC1	-2	14	129	94	-1.3	i	0.99
O=C(NCc1ccncc1)c1nnc(Cc2c(F)cccc2Cl)o1	-6	nt	nt	99	-1.2	i	0.94
S=C(Nc1ccccc1Cl)N1CCCC1	-2	nt	nt	102	nt	i	0.95
CC(=O)Nc1ccc2c(c1)nc(CCN1CCOCC1)n2C	5	24	77	107	-2.8	i	0.78
CCc1nc2scc(-c3cccs3)c2c(=O)o1	1	69	150	103	-2.1	i	1.1
CC1(C)CC(=O)c2ccc(OCc3ccc([N+](=O)[O-])cc3)cc2O1	nt	nt	nt	94	nt	i	1
Cc1c(C(=O)O)oc2ccc(S(=O)(=O)NCc3ccc4c(c3)OCO4)cc12	0	31	71	98	-2.2	nt	nt
COc1cc(CNc2ccc3[nH]c(=O)[nH]c3c2)cc(Br)c1OCC(=O)NC(C)(C)C	1	0	75	99	-0.4	i	0.64
O=C(CN1C(=O)c2ccccc2C1=O)Nc1ccccc1C(=O)N1CCCC1	-3	-72	82	108	-2.0	i	0.88
Cc1cc(C)nc(N(C#N)Cc2ccc(Cl)cc2)n1	-7	nt	nt	101	nt	i	0.79
CN(CCOc1ccccc1)Cc1nc2cc(Cl)ccc2c(=O)[nH]1	-3	40	28	109	nt	i	0.97

Ordered by formula weight (largest number first): part of the list above.
SMILES	PKD1 kinase inh	INS promoter inh	INS promoter inh cell count	RGS16-Gao	GALR2 agonist	HSV augment	HSV augment primary fold
COc1cc(CNc2ccc3[nH]c(=O)[nH]c3c2)cc(Br)c1OCC(=O)NC(C)(C)C	1	0	75	99	-0.4	i	0.64
COc1ccccc1OCCCCN1CCN(C(c2ccccc2)c2ccccc2)CC1	-7	15	125	117	-0.7	i	0.86
Cc1nc2ccc(S(=O)(=O)NC(C(=O)NCc3cccs3)C(C)C)cc2s1 (centres undefined)	-6	nt	nt	103	-0.4	i	0.89
CCSc1nnc(NC(=O)CSC2=NN3CCCC(=O)N=C3S2)s1	-5	21	57	101	nt	i	1
O=C(CN1C(=O)c2ccccc2C1=O)Nc1ccccc1C(=O)N1CCCC1	-3	-72	82	108	-2.0	i	0.88
Oc1c(Cl)cccc1C=Nc1cc(C(F)(F)F)ccc1N1CCCC1	5	29	115	101	-1.9	nt	nt
O=C(NCc1ccncc1)c1nnc(Cc2c(F)cccc2Cl)o1	-6	nt	nt	99	-1.2	i	0.94
CN(CCOc1ccccc1)Cc1nc2cc(Cl)ccc2c(=O)[nH]1	-3	40	28	109	nt	i	0.97
Cc1ccc(-c2nnc(SCC(=O)Nc3ccccc3F)o2)cc1	-10	nt	nt	104	-1.7	i	0.93
O=C(CCSCCc1ccncc1)NCCCN1CCOCC1	-2	14	129	94	-1.3	i	0.99
CC1(C)CC(=O)c2ccc(OCc3ccc([N+](=O)[O-])cc3)cc2O1	nt	nt	nt	94	nt	i	1
CC(=O)Nc1ccc2c(c1)nc(CCN1CCOCC1)n2C	5	24	77	107	-2.8	i	0.78
Cc1cc(C)nc(N(C#N)Cc2ccc(Cl)cc2)n1	-7	nt	nt	101	nt	i	0.79
CCc1nc2scc(-c3cccs3)c2c(=O)o1	1	69	150	103	-2.1	i	1.1
S=C(Nc1ccccc1Cl)N1CCCC1	-2	nt	nt	102	nt	i	0.95

(listing goes on)
SMILES	PKD1 kinase inh	INS promoter inh	INS promoter inh cell count	RGS16-Gao	GALR2 agonist	HSV augment	HSV augment primary fold
COc1ccc(C(=O)Nc2nc(C)cc(C)n2)cc1[N+](=O)[O-]	-3	42	84	36	0.0	i	1
COc1ccc(NC(=S)NC(C)Cc2cccs2)cc1 (centres undefined)	-1	nt	nt	101	nt	i	0.89
Cn1c(SCC(=O)N2CCOCC2)nnc1-c1ccc2ncccc2c1	nt	nt	nt	99	nt	i	1.1
CC1Cc2cc(C3(O)C(=O)c4ccccc4C3=O)ccc2N1 (centres undefined)	-12	nt	nt	91	-0.5	i	0.87
COc1ccc(-n2nc3cc(C)c(NC(=O)C(C)C)cc3n2)cc1	-17	nt	nt	102	-1.0	i	1.2
COC(=O)c1[nH]c2ccccc2c1NC(=O)CN1CCN(C/C=C/c2ccccc2)CC1	-6	24	93	100	-0.6	i	0.87
CCN1CCCC1CNC(=O)c1ccc(N2CCCC2=O)cc1 (centres undefined)	0	-14	57	100	-3.5	i	1.1
c1ccc(-c2nc(NCc3ccco3)c3oc4ccccc4c3n2)cc1	-3	-14	75	99	-1.8	i	0.87
CC(C)C(NC(=O)c1ccc(C(C)(C)C)cc1)C(=O)NC1=NCCS1 (centres undefined)	-9	-47	96	120	0.0	i	1.1
Cc1ccc(NC(=O)c2c(C)nc3ccccn23)cc1C	4	-13	104	101	nt	i	0.92
COc1ccc(OC)c(S(=O)(=O)N2CCC(C(=O)NCc3ccccc3OC)CC2)c1	5	-28	128	103	-1.3	i	0.89
O=C(CCc1ccccc1)NC(NC(=S)Nc1cccc(Cl)c1)C(Cl)(Cl)Cl (centres undefined)	3	29	115	105	-1.1	i	1.1
COc1cc(NC(=O)CN2CCC(Cc3ccccc3)CC2)c(C)cc1[N+](=O)[O-]	3	7	98	182	-1.0	i	0.96
O=C(Cc1ccc(Br)cc1)c1ccc(O)cc1O	10	0	128	94	-2.4	i	0.75
O=C1Nc2ccc([N+](=O)[O-])cc2OC1CCN1CCN(Cc2ccc3c(c2)OCO3)CC1 (centres undefined)	2	nt	nt	98	nt	i	0.91
O=C(NC1CCCCC1)C(c1ccc(O)cc1)N(CC1CCCO1)C(=O)C1COc2ccccc2O1 (centres undefined)	3	-19	26	91	-4.1	i	0.9
COc1ccccc1-n1c(=O)c2c3c(sc2n2c(=S)[nH]nc12)CCC3	-8	61	132	103	nt	i	0.85
O=C(O)CC(NC(=O)c1cccc([N+](=O)[O-])c1)c1ccc2c(c1)OCO2 (centres undefined)	-3	nt	nt	99	nt	i	1
Cc1c(C(=O)NCCN2C(=O)S/C(=C\c3cccnc3)C2=O)cccc1[N+](=O)[O-]	nt	nt	nt	97	nt	i	0.87
CCN(CC)S(=O)(=O)c1ccc2oc(C(=O)NCc3ccc(C)cc3)c(C)c2c1	-8	-50	121	107	-1.7	i	0.76
COc1ccc(CN(C)CC(=O)Nc2ccc(Cl)cc2F)c(OC)c1	nt	nt	nt	99	nt	i	0.83
O=c1[nH]ncc(NCc2ccc(Cl)cc2)c1Cl	-5	39	117	99	nt	i	0.93
O=[N+]([O-])c1cc(S(=O)(=O)CCCN2CCOCC2)ccc1F	-10	52	104	97	nt	i	1
CCn1nc(C(=O)Nc2ccc3nc(C)sc3c2)c2ccccc2c1=O	-13	32	80	57	0.2	i	0.95
CCOC(=O)Cn1c(C)c(C#N)c2ccccc21	3	-18	76	99	0.1	i	0.94
CCN1CCN(c2ncc3c(n2)CC(c2cc(OC)c(OC)c(OC)c2)CC3=O)CC1 (centres undefined)	10	38	62	108	-0.7	i	0.58
COC(=O)c1ccccc1NC(=O)c1ccccc1OC	7	29	169	99	-2.0	i	0.91
COc1ccc(C2CC(=O)Oc3c(C(CCN4CCOCC4)c4cc(OC)c(OC)c(OC)c4)c(OC)cc(OC)c32)cc1 (centres undefined)	nt	nt	nt	104	nt	i	1.1
Cc1ccc(NC(=S)/N=C(\N)Nc2nc(C)c3cc(C)c(C)cc3n2)cc1C	5	-10	99	98	nt	i	0.8
Cc1nc2ccc(Br)cn2c(=O)c1Cl	-13	nt	nt	102	-2.3	i	1
O=C(O)COc1ccc(/C=N/Nc2nc(Nc3ccccc3)nc(N3CCCCC3)n2)cc1	0	29	111	97	nt	i	1
c1ccc(CCNc2nc3ccccc3n3nnnc23)cc1	-9	-6	116	105	-1.2	nt	nt
CCN1/C(=C/c2ccc3cc(C)ccc3[n+]2CC)Sc2cc(C)ccc21	-5	i	45	101	nt	nt	nt
O=C1NCCCC1C(=O)N1CCN(C(c2ccccc2)c2ccccc2)CC1 (centres undefined)	-6	30	143	103	-1.6	i	0.74
Cc1c(-c2ccc(Cl)cc2)oc(=O)c2c(N)n(-c3ccccc3)nc12	-2	6	127	87	3.9	i	0.51
